miR-21 FLuc: raises the signal of a miR-21 reporter | AID 2288 | 340,000 tested, under 10 active | HeLa miR-21 FLuc reporter, luciferase, 48 h | Potency, µM (doses to about 38.3 µM), inactives show at the top dose reporter change, positive = more light; active = well fitted rising curve with a large enough effect; inconclusive = small, poorly fitted or top-dose-only effect; inactive = no such curve, though single readings can be large or run the other way;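 note: % of control where 0% means no effect; miR-21 action dims this reporter so a rising signal means less miR-21 action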
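HeLa cells stably expressing CMV-driven firefly luciferase with a downstream miR-21 binding sequence, endogenously expressing miR-21, were treated with titrations (up to about 40uM final) for 48 hours at 37 degree Celsius. Luciferase luminescence was read after lysis.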
Rango release inh: inhibition of RanGTP-driven Rango-importin beta dissociation. O95149+P62826. Biochemical FRET Rango-importin beta, RanGTP-induced dissociation. Potency, µM (highest dose often 46.1 µM), without a hit: at the highest dose activity change, negative = inhibition. 0.071% of 340,000 active. AID 540253; active means falling FRET ratio curve, often poorly fitted, with flat reads before Ran was added; inconclusive means other falling curves, or compound fluorescence or quenching; inactive means flat or rising ratio curve;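 note: potency is the fitted concentration of half-maximal effect; % of control where 0% means no effect; nearly all actives have a fitted effect of over 45% in size; -100% = wells without RanGTP and RCC1; the record marks most hits as doubtful in a second field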
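Compounds preincubate 5 min with complex of recombinant Rango and importin beta in PBS with 1 mM DTT. Ran (0.6 uM) loaded with 2 mM GTP plus 0.2 uM RCC1 starts dissociation; FRET is recorded 45 min later.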
Rango complex inh: prevents formation of the Rango-importin beta complex. 0.031% of 340,000 active. Rango CFP/YFP FRET sensor + importin beta, 45 min. AID 540263. Potency, µM (doses to about 92.2 µM), for inactives: top-dose inhibition of complex formation; active = rising FRET ratio curve, often small or poorly fitted; inconclusive = mostly compound fluorescence or quenching in the first reads; inactive = flat curves in all reads;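 note: potency is the fitted concentration of half-maximal effect; 0% = DMSO wells and 100% = buffer wells lacking importin beta; nearly all actives have a fitted effect of over 15% in size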
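Inhibition scored from the CFP 486 nm/YFP 530 nm FRET ratio 45 min after adding 0.125 microM importin beta to 50 nM Rango biosensor preincubated 5 min with compound (room temperature, PBS with DTT, Tween-20, BSA). No-importin wells as positive control.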
GLA inh pH 4.5: blocks human alpha-galactosidase A at pH 4.5; P06280; purified enzyme, 4-MU-alpha-Gal fluorescence, pH 4.5; activity change, negative = inhibition, % at 105 µM; 230,000 tested, under 10 active; inconclusive = small, poorly fitted or top-dose-only inhibition, or a rising curve; inactive = flat fitted curve, though single readings scatter; no compound was filed as active;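 note: 0% = full activity with enzyme and -100% = basal without enzyme; dose as in the result columns while the protocol names 77 µM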
Target sequence (P06280 whole entry, looked up): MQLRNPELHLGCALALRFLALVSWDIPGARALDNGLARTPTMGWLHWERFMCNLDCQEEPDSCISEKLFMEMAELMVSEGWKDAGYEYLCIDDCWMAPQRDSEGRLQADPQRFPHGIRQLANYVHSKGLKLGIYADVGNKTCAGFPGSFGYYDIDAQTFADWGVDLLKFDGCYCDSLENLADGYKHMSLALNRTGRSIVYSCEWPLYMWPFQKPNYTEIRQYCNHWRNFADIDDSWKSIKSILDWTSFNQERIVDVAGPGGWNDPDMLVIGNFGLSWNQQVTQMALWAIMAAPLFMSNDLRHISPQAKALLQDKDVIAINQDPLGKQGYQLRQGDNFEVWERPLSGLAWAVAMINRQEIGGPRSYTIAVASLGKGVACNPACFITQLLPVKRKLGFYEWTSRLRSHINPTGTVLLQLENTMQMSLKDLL
Numbers without * were called inactive; ? = inconclusive; . = not tested or not shown. A portion of the library (hit frequency here may not be typical).

The first two records as a preview:
miR-21 FLuc | Rango release inh | Rango complex inh | GLA inh pH 4.5 | SMILES
-11% | -15% | -1.6% | 1 | COc1ccc(C(=O)/C=C(\C)Nc2ccc(NC(C)=O)cc2)cc1
-2% | 8% | 1.6% | -8 | O=C(O)c1cc([N+](=O)[O-])ccc1N1CCCCC1

Main list, repeating the preview:
miR-21 FLuc | Rango release inh | Rango complex inh | GLA inh pH 4.5 | SMILES
-11% | -15% | -1.6% | 1 | COc1ccc(C(=O)/C=C(\C)Nc2ccc(NC(C)=O)cc2)cc1
-2% | 8% | 1.6% | -8 | O=C(O)c1cc([N+](=O)[O-])ccc1N1CCCCC1
-42% | -13% | 0.7% | . | O=C(O)c1cncc(C#Cc2ccccc2)c1
. | 2% | -2.2% | . | CC1(c2ccc(Cl)cc2Cl)NC(=O)N(CC(=O)Nc2cccnc2Cl)C1=O (stereo unspecified)
-1% | 15% | 0.2% | 0 | CC1(C)CC(=O)C(C=N)=C(O)C1
1% | -3% | 0.1% | -11 | COc1ccccc1NC(=S)N1CCN(c2nc(-c3ccccc3)cs2)CC1
-10% | 4% | -1.6% | -2 | CCOc1ncccc1C(=O)OCC(=O)N1CC(=O)Nc2ccccc21
. | 12% | 0.1% | . | Nc1c(N(Cc2ccccc2)C(=O)CCc2ccccc2)c(=O)[nH]c(=O)n1Cc1ccccc1
26% | -6% | 3.0% | . | COc1ccc(NC(=O)CSc2n[nH]c(-c3ccccn3)n2)cc1
-6% | -15% | ? | . | N#Cc1c(Nc2ccccc2)c(C=O)c[nH]c1=O
-1% | -10% | 1.2% | . | Cc1ccc(C(=O)CCC(=O)N(C)CC(=O)Nc2ccccc2Br)cc1
0% | 5% | 0.5% | -1 | CCCOCC(O)CCc1n[nH]c(=S)n1-c1ccccc1 (stereo unspecified)
? | 13% | -6.2% | 5 | C=C(C)C(=O)O[C@H]1C/C(C)=C\C(=O)/C=C(\C)[C@H](O)[C@@H]2OC(=O)C(=C)[C@@H]21
-4% | 22% | 0.9% | . | O=C(NNC(=O)c1ccc[nH]1)c1cccc(C(F)(F)F)c1
-4% | 14% | 0.4% | -12 | Cc1ccc(CCNC(=O)C2CCCN(S(=O)(=O)c3cnc[nH]3)C2)cc1 (stereo unspecified)
-1% | -23% | ? | . | O=C(N/C(=C\c1ccco1)C(=O)N1CCCC1CO)c1ccccc1 (stereo unspecified)
1% | 0% | -0.2% | 1 | CCc1ccccc1NC(=S)N1CCC(NC(=O)c2ccc(OC)cc2)CC1
-13% | 20% | 4.8% | 10 | Cc1nc2sc3c(c2c(=N)n1N)CCCC3
-2% | 1% | 1.8% | -13 | Cc1cccc2c1CC(C)(C)N=C2C1=C(O)CC(C)(C)CC1=O
-6% | -7% | 10% | 0 | O=C1c2ccccc2C(=O)N1c1n[nH]c(CCc2ccccc2)n1
-2% | -10% | -1.8% | -6 | Cc1nccn1CCC(=O)Nc1ccc(Cl)cc1
-11% | 5% | -0.2% | 3 | CCCc1[nH]c(=O)c(C#N)c2c1CCCC2
. | -5% | 0.0% | . | O=S(=O)(c1ccc(F)cc1)N1CCN(Cc2nnc(-c3ccccc3)o2)CC1
-2% | -2% | 4.4% | 8 | C/C(=C\C(=O)Nc1cscc1C)C(=O)O
-2% | 7% | ? | . | CCN1CCN(c2ccc(S(=O)(=O)N3CCCCC3)cc2NC(=O)/C=C/c2cccc(OC)c2OC)CC1
-5% | 1% | 0.3% | -10 | CN1CCN(C(=O)C2CCN(S(=O)(=O)c3cnc[nH]3)CC2)CC1
0% | 7% | 2.5% | 7 | Cn1c(SCc2ccccc2Cl)nc(C(F)(F)F)cc1=O
-20% | 0% | -2.2% | 6 | COc1ccc2c3c(c(=O)oc2c1OCC(=O)C(C)(C)C)CCCC3
. | -12% | -0.9% | . | CN1OC[C@@H]2CN(C(=O)CCc3ccccc3)[C@H](c3cccc(-c4ccc(C#N)cc4)c3)C[C@@H]21
-3% | 13% | 2.6% | -1 | Cc1ccc(C)n1-c1ccc(N(C)C)cc1

One compound at a time, from the list above. Values in the order: miR-21 FLuc | Rango release inh | Rango complex inh | GLA inh pH 4.5
Cc1nccn1CCC(=O)Nc1ccc(Cl)cc1 is listed as -2% | -10% | -1.8% | -6
CC1(C)CC(=O)C(C=N)=C(O)C1 is listed as -1% | 15% | 0.2% | 0
CCc1ccccc1NC(=S)N1CCC(NC(=O)c2ccc(OC)cc2)CC1 is listed as 1% | 0% | -0.2% | 1
Cc1nc2sc3c(c2c(=N)n1N)CCCC3 is listed as -13% | 20% | 4.8% | 10

Individual results from above.
In Rango complex inh, `O=C1c2ccccc2C(=O)N1c1n[nH]c(CCc2ccccc2)n1` reads 10%
In Rango release inh, `O=C(O)c1cc([N+](=O)[O-])ccc1N1CCCCC1` reads 8%
In Rango release inh, `CC1(c2ccc(Cl)cc2Cl)NC(=O)N(CC(=O)Nc2cccnc2Cl)C1=O` (stereo unspecified) reads 2%
In GLA inh pH 4.5, `CC1(C)CC(=O)C(C=N)=C(O)C1` reads 0
In GLA inh pH 4.5, `CCCOCC(O)CCc1n[nH]c(=S)n1-c1ccccc1` (stereo unspecified) reads -1
In Rango release inh, `Cc1cccc2c1CC(C)(C)N=C2C1=C(O)CC(C)(C)CC1=O` reads 1%
In Rango complex inh, `C/C(=C\C(=O)Nc1cscc1C)C(=O)O` reads 4.4%

(next part)
miR-21 FLuc | Rango release inh | Rango complex inh | GLA inh pH 4.5 | SMILES
-27% | 20% | 2.9% | 8 | CC(=O)Nc1nnc(CSCc2ccc(F)cc2)s1
-7% | -29% | 4.5% | 5 | CCCCCCn1c(O)c(/C=C2\C=NN=C2c2ccccc2)sc1=S
-39% | -3% | -2.6% | 6 | O=C(CC1C(=O)NCCN1CC1CCCCC1)NCc1ccc(F)cc1F (stereo unspecified)
5% | -11% | 3.3% | 0 | O=C(O)c1cccc(C(=O)c2cccc(C(=O)O)c2)c1
-14% | -11% | ? | . | COc1cc(C(=O)Oc2cccc(/C=N/NC(=O)c3cc(C)[nH]n3)c2)cc(OC)c1OC
15% | -21% | 2.7% | 7 | CCC(C(=O)N1CCN(c2ccccc2OC)CC1)c1ccccc1 (stereo unspecified)
-7% | . | . | -8 | COc1ccc(N(CC(=O)N/N=C/c2cc3ccc(OC)cc3nc2Cl)S(=O)(=O)c2ccccc2)cc1
-3% | 10% | -0.5% | 12 | CC1(C)C=C(c2ccc(O)cc2)CC(C)(C)N1
0% | ? | ? | 1 | CS(=O)(=O)c1nsc2nc(=O)c(/C=C3\C=Nc4ccccc43)c(N)n12
0% | 7% | -5.3% | -7 | CC(C)Cn1cc(Cl)c(=O)n(CC(C)C)c1=O
-10% | 5% | -0.3% | . | COC(=O)c1cccc(C(=O)N2CCC(CO)(CCc3ccccc3)CC2)c1
. | -13% | -0.6% | . | Cc1ccc(NC(=O)COC(=O)c2ccc3c(c2)OCCO3)cc1
-18% | -8% | -0.4% | 5 | O=C(Nc1cccc2ccccc12)NC1Cc2ccccc2C1
-1% | 1% | -0.5% | 0 | S=C(NCCCN1CCOCC1)Nc1ccc(Nc2ccccc2)cc1
-4% | -5% | -1.5% | -3 | Cn1c(Cn2nnc(-c3ccccc3)n2)nnc1SCc1ccccc1Cl
-26% | -1% | 1.1% | 0 | Cn1c(SCc2ccc3c(c2)OCO3)nnc1-c1ccccc1
1% | -9% | 0.8% | . | O=C(CNC(=O)c1ccccc1F)NCc1cccnc1
5% | ? | 7.7% | . | CC(=N\NC(=O)c1cc(Br)ccc1O)/C(=N/O)C(=O)Nc1ccccc1
2% | 24% | -0.4% | . | Cc1ccc2c(c1)C(c1ccccc1)N(C(=O)c1ccccc1)CC(=O)N2 (stereo unspecified)
? | -3% | 0.1% | 0 | O=Cc1cccc(Oc2ccc([N+](=O)[O-])cc2[N+](=O)[O-])c1
-3% | -16% | 2.0% | -2 | COc1ccc(C(=O)NCc2nnc(SCC(=O)N3CCOCC3)o2)cc1
2% | 8% | 3.5% | . | CN(C)c1ccc(NC(=O)CSc2nnc(-c3cnccn3)n2C)cc1
2% | 12% | -1.4% | 2 | O=C(CCc1ccccn1)NC1CCCc2c1cnn2-c1ccc(F)cc1F (stereo unspecified)
-33% | 1% | -3.8% | . | CC(=O)Oc1ccc(-c2cccc(C(=O)N3CCCCC3)c2)cc1
11% | -21% | -0.7% | 1 | Nc1nc(CSC(=S)N2CCN(c3ccccc3)CC2)nc(Nc2ccc(F)cc2)n1
0% | -13% | 5.2% | 5 | COc1ccc(Br)cc1CN(C)CC(=O)Nc1c(Cl)cccc1Cl
-58% | -3% | -1.0% | -14 | O=C1N=C(N2CCCC2)S/C1=C\C=C\c1ccccc1
-14% | 1% | ? | -2 | C[n+]1cccc(C2C(C#N)=C(N)Oc3c2ccc2ccccc32)c1 (stereo unspecified)
. | -3% | -2.3% | . | CC(C(=O)Nc1ccc(Cl)cc1Cl)N1C(=O)NC2(CCCCCCC2)C1=O (stereo unspecified)
5% | 13% | 2.2% | 10 | COc1cc(/C=C2\N=C(c3ccccc3)OC2=O)ccc1OCc1c(C)no[n+]1[O-]

A run of entries taken from the entries so far:
miR-21 FLuc | Rango release inh | Rango complex inh | GLA inh pH 4.5 | SMILES
-33% | 1% | -3.8% | . | CC(=O)Oc1ccc(-c2cccc(C(=O)N3CCCCC3)c2)cc1
11% | -21% | -0.7% | 1 | Nc1nc(CSC(=S)N2CCN(c3ccccc3)CC2)nc(Nc2ccc(F)cc2)n1
0% | -13% | 5.2% | 5 | COc1ccc(Br)cc1CN(C)CC(=O)Nc1c(Cl)cccc1Cl
-58% | -3% | -1.0% | -14 | O=C1N=C(N2CCCC2)S/C1=C\C=C\c1ccccc1
-14% | 1% | ? | -2 | C[n+]1cccc(C2C(C#N)=C(N)Oc3c2ccc2ccccc32)c1 (stereo unspecified)
. | -3% | -2.3% | . | CC(C(=O)Nc1ccc(Cl)cc1Cl)N1C(=O)NC2(CCCCCCC2)C1=O (stereo unspecified)
5% | 13% | 2.2% | 10 | COc1cc(/C=C2\N=C(c3ccccc3)OC2=O)ccc1OCc1c(C)no[n+]1[O-]

(list continues)
miR-21 FLuc | Rango release inh | Rango complex inh | GLA inh pH 4.5 | SMILES
4% | 17% | 4.0% | 9 | O=C(NC(=S)NCc1ccncc1)c1ccccc1
-18% | -2% | ? | -1 | Cc1csc(NC(=O)CSc2nnc(-c3ccncc3)o2)n1
-1% | 9% | 1.0% | -2 | O=C(O)c1cccc(N2C(=O)C3CC=C(Cl)CC3C2=O)c1 (stereo unspecified)
. | -4% | 1.9% | . | Cc1c(C(=O)NCCCN2CCCC2=O)oc2c(Cl)cccc12
12% | -9% | -2.9% | -11 | COc1cc(NC(N)=S)c(OC)cc1Cl
. | -3% | 0.0% | . | O=C(CCNC(=O)c1ccco1)NCc1ccc(C(=O)O)cc1
5% | 2% | -0.3% | -17 | CCn1c(C)nc2cc(OC)ccc21
-3% | -16% | -3.0% | -2 | CN(CC1CCCO1)S(=O)(=O)c1ccc(C(=O)Nc2nccs2)cc1 (stereo unspecified)
7% | 1% | -1.2% | -2 | O=Nc1onc(-c2ccc([N+](=O)[O-])cc2)c1NO
-10% | 6% | 0.5% | -12 | Cc1nn(Cc2c(Cl)cccc2Cl)c(C)c1NC(=O)CCCn1nc([N+](=O)[O-])c(Cl)c1C
-1% | 0% | ? | . | CN(C)CCCN(C(=O)c1ccc(S(=O)(=O)N(C)C2CCCCC2)cc1)c1nc2ccc(Br)cc2s1
. | 12% | -0.5% | . | CN(C)CCCNC(=O)C[C@H]1C[C@H](C(=O)N2CCOCC2)[C@@]2(CCC3CCCC3)c3[nH]c4cc(-c5ccco5)ccc4c3CCN2C1=O
-5% | 8% | 5.1% | -3 | Cn1nc(C(F)(F)F)c(/C=N/OC(=O)c2ccccc2)c1SCc1ccc(Cl)cc1
0% | -10% | -5.3% | 9 | CCCC(=O)Nc1cc(C)c(NC(=O)c2cccs2)cn1
-1% | 9% | 0.5% | . | CC(=O)c1c(C)[nH]c(C(=O)Nc2cccc(C#N)c2)c1C

Source: PubChem BioAssay (National Center for Advancing Translational Sciences (NCATS))
